Screens from PubChem BioAssay.
Six1-Eya2 inh: Six1/Eya2 interaction inhibition; Q15475+O00167; AlphaScreen GST-Six1/His-Eya2 binding, biochemical; hits give low values; control for the full effect not named in the record; activity change, % (no concentration beside the values); 360,000 tested, 0.56% active; AID 651725; in the data active = activity change below about -65%; inconclusive = about -30% to -65%; inactive = above about -30%; further: on the % scale 0 is the no-effect control and ±100 the full control effect; compound concentration not given in the record
Target sequence (O00167 whole entry, looked up): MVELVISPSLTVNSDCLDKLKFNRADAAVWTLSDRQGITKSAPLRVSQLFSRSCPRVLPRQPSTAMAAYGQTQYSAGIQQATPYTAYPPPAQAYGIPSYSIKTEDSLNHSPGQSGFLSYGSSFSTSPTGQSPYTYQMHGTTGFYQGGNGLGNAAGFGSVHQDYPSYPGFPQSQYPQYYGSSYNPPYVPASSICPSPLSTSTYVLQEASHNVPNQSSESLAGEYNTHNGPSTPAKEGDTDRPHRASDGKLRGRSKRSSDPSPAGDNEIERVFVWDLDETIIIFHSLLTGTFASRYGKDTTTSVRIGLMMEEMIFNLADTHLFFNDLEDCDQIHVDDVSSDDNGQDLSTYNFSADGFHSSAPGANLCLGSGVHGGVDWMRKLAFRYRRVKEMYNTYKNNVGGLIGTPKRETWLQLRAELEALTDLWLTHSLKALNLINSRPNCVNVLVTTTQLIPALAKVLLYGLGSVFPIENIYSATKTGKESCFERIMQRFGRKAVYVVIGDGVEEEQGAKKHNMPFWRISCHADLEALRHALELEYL
Target sequence (Q15475 whole entry, looked up): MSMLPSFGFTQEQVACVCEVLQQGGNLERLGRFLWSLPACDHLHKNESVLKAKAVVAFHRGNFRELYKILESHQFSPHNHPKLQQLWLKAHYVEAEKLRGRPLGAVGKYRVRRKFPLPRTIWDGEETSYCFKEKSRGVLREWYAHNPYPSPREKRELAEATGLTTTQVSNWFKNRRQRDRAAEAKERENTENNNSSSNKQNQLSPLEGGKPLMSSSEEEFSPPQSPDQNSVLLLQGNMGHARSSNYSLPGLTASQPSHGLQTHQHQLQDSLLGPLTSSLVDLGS
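Homogeneous AlphaScreen proximity assay pairing GST-Six1 with His-tagged Eya2 (added as 5X mix: 250 nM and 500 nM) in 50 mM Tris pH 8.0, 300 mM NaCl, 1 mM TCEP. Glutathione donor and nickel acceptor beads; 1 h, 37 °C, dark.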
TRPML1 blocker: blocks the human TRPML1 channel | activity change, negative = inhibition, % (concentration not given with the values) | TRPML1-inducible cells, Ca2+ dye fluorescence, FDSS; hits give low values; inhibition of EC80 agonist-evoked calcium signal | Q9GZU1 | AID 624415 | 390,000 tested, 0.02% active; in the data active means activity change below about -50%; inconclusive means about -30% to -50%; inactive means above about -30%;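 further: stimulus is agonist 54-4 at its EC80 concentration; on the % scale 0 is the no-effect control and ±100 the full control effect; compound concentration not given in the record; the text of the record puts the active cut at -80%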
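Tet-induced TRPML1-DL cells loaded with Ca8 no-wash calcium dye were read kinetically on FDSS. Compound addition was followed by EC80 agonist 54-4 (4 uM final); inhibition was read over 110 s.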
TRPML1 agonist: activates the human TRPML1 channel | Q9GZU1 | TRPML1-expressing cells, Ca2+ dye fluorescence, FDSS; host cell line not named in the record; reference of the full effect not given here | activation, % (test concentration not listed) | 410,000 tested, 0.12% active | AID 624414; in the data active = activation above about 50%; inconclusive = about 30% to 50%; inactive = below about 30%; further: 0% is about no effect; the text of the record puts the active cut at 80%
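Kinetic FDSS Ca2+ read in Tet-induced TRPML1-DL cells (ABD Ca8 dye plus quencher, 45-90 min RT loading): baseline, then compound, then 110 s agonist window; EC80 agonist 54-4 at 4uM final added afterwards for a 110 s antagonist window.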
D2 agonist: agonists of human D2 dopamine receptor (beta-arrestin); DiscoveRx PathHunter D2 beta-arrestin, luminescence, 90 min; 100% = 57 uM dopamine signal; activation, % (no concentration beside the values); 360,000 tested, 0.084% active; in the data active = activation above about 40%; inconclusive = about 15% to 40%; inactive = below about 15%; further: compound concentration not given in the record; the text of the record calls up to 30% inactive
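DiscoveRx PathHunter D2 beta-arrestin cells (2,100/well) attached overnight, then compound-stimulated 90 min at 37 C in HBSS/10 mM HEPES/0.1% Tween-20 buffer; beta-galactosidase complementation read by luminescence after 1 h at ambient temperature. Dopamine 57 uM final (EC100) as control.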
D2 PAM: positive allosteric modulators of human D2 dopamine receptor | AID 624464 | potentiation, % (no concentration beside the values) | DiscoveRx D2 beta-arrestin cells, luminescence, 90 min; 100% = 57 uM dopamine signal | 360,000 tested, 0.23% active | P14416; active = potentiation of 50% or more; inconclusive = 30% to 50%; inactive = 30% or less;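 further: compound concentration not given in the record; tested on top of an EC20 dose of dopamine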
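PathHunter D2 cells, attached overnight at 37 deg C, received compound in DMSO plus dopamine at EC20 (50 nM final) for 90 min at 37 deg C. Beta-arrestin recruitment was read as luminescence after 1 h with detection reagent at ambient temperature.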
PINK1 expr mod: PINK1 expression modulation; PINK1 immunofluorescence, high-content cytometry, 24 h; Potency, µM (top dose mostly 76.6 µM), without a hit: top-dose activation (PINK1 increase), actives largely listed as activators; 410,000 tested, 0.2% active; active = well fitted activation curve with a large enough effect; inconclusive = small, poorly fitted or top-dose-only effect; inactive = flat fitted curve, though single readings scatter; cell line not stated here;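 further: potency means the concentration at half of the fitted maximal effect; % of control where 0% means no effect; nearly all actives have a fitted effect of over 65% in size; a mitochondrial uncoupler was the plate control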
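Compound titrations (5 concentrations, 24 h) on a stable cell line; DMSO and CCCP controls. Endpoint: fixed-cell PINK1 immunofluorescence with mitochondrial, cell and nuclear markers, scanned by microplate cytometer.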
Active calls of the source: *; u = inconclusive; x = not tested or not shown; & = joins results of further samples; [ ] = another dose, or the depositor's remark.

SMILES | Six1-Eya2 inh | TRPML1 blocker | TRPML1 agonist | D2 agonist | D2 PAM | PINK1 expr mod
COc1ccc(/C=N/Nc2nc3ccccc3c(=O)n2-c2ccccc2)cc1OC | -4 | -22 | -0.2 | 3.9 | -10 | u
Cc1nc(-c2ccc(F)cc2)c(CC(=O)N(C)CC(=O)Nc2ccc(F)cc2)s1 | -3 | 18 | 0.5 | -1.4 | -13 | 3.9%
O=C(N/N=C/c1coc2ccccc2c1=O)c1ccc(Cl)cc1 | 0 | -23 | 0.1 | -4.6 | -28 | 0.2%
COc1ccc(CN(C)c2ccc(S(=O)(=O)N3CCN(C)CC3)cc2[N+](=O)[O-])cc1OC | -16 | -7 | 0.8 | -1.9 | -22 | 1.2%
CC(C)C[C@H](NC(=O)c1nc[nH]c1C(=O)NCc1ccc(CNC(=O)OC(C)(C)C)cc1)C(=O)OC(C)(C)C | -6 | -9 | 2.4 | -2.8 | -8 | 1.4%
COc1ccccc1C(=O)NC1CCN(C(=S)NCCc2ccccc2)CC1 | -1 | -13 | 1.8 | -0.1 | 0 | 0.2%
O=c1c2ccccc2nc(SCc2cc(F)ccc2F)n1C1CCCC1 | 0 | -10 | -0.6 | -2.4 | -14 | 3.9%[38.3 µM]
Cc1ccc(CC(=O)Nc2ccc(S(=O)(=O)Nc3ncccn3)cc2)cc1 | 6 | -10 | -0.3 | 9.4 | 2 | 1.3%
N#C/C(=C\c1cccc(Oc2ccccc2)c1)C(=O)N1CCOCC1 | 7 | 3 | 0.7 | 0.2 | 1 | 7.4%
CC(C)c1ccc(NC(=O)C2CCN(S(=O)(=O)c3ccc4c(c3)C(C)(C)C(=O)N4C)CC2)cc1 | 3 | 20 | -0.4 | -0.4 | -9 | 1.1%
COC(=O)c1cccc(Nc2c(-c3ccc(O)cc3)nc3nc[nH]n23)c1 | x | -15 | -0.2 | x | x | 2.3%
COc1cc2c(cc1NC(=O)c1cccnc1)oc1ccccc12 | -4 | 1 | -0.6 | -3.9 | 10 | 0.9%
CCOc1ccc(C(C)=O)cc1COC(=O)c1cccnc1SC | 4 | -6 | -0.4 | -0.9 | -5 | 0.4%
COc1cc(S(=O)(=O)N2CCN(c3ccc(F)cc3)CC2)ccc1Cl | -5 | 8 | 0.2 | -1.5 | 3 | 2.7%
CC(NC(=S)Nc1ccccc1OC(F)F)C(C)(C)C (configuration not stated) | -16 | 28 | 0.3 | -3.2 | -12 | 4.8%
C(=C\c1ccccc1)/CN1CCN(c2ncnc3c2oc2ccccc23)CC1 | -20 | 7 | 2.3 | 7.3 | -10 | -1.2%[38.3 µM]
CCOc1ccc(C(=O)Nc2ccc3c(c2)OCCO3)cc1[N+](=O)[O-] | -5 | -3 | -0.7 | -20 | -8 | 2.5%
O=C(Nc1cc(C(F)(F)F)ccc1Cl)c1cc(-c2cccs2)nc2ccccc12 | x | 23 | -0.3 | x | x | 1.4%
COc1cc(CC(=O)Nc2ccc3nc(C)sc3c2)cc(OC)c1OC | -6 | -10 | -1.1 | -1.5 | -5 | 1.5%
COc1cc(NC(=O)Cn2nc(Cc3cccnc3)c3ccccc3c2=O)cc(OC)c1OC | 2 | -15&-1 | -0.4&0.7 | -5.1 | -12 | 1.2%&2.1%
COc1ccccc1NC(=O)CCCc1c[nH]c2ccccc12 | -15 | -1 | 0.2 | 4.9 | 1 | 0.2%
O=C(NCC1CCCO1)C1CCN(S(=O)(=O)Cc2ccccc2)CC1 (configuration not stated) | 0 | -3 | 0.1 | -4.4 | -5 | -0.9%
COC(=O)Cc1[nH]n(-c2nc3ccccc3s2)c(=O)c1C(C)=Nc1ccc(OC)cc1 | -2 | 13 | -0.8 | -4.6 | -12 | 4.0%
COc1ccc(C2CC(=O)C3=C(C2)Nc2ncnn2C3c2ccccc2C)cc1 (configuration not stated) | -3 | 4 | -0.1 | -4.6 | -13 | 5.1%
S=C(c1ccccc1)N(c1ccccc1)c1ccccc1 | u | 40 | 1.2 | -7.4 | -15 | 7.9%
The listing continues:
SMILES | Six1-Eya2 inh | TRPML1 blocker | TRPML1 agonist | D2 agonist | D2 PAM | PINK1 expr mod
Cc1cc(C)c(S(=O)(=O)N(CC(=O)NCc2cccnc2)C2CCCCC2)c(C)c1 | -12 | -11 | 1.7 | -3.5 | -12 | -0.9%
Cc1ccccc1NC(=O)Cn1cnc2c1c(=O)n(C)c(=O)n2C | 7 | 13 | 0.3 | -1.3 | -8 | 0.0%
CCOc1cc(S(=O)(=O)N2CCN(C(=O)c3ccco3)CC2)ccc1F | 4 | -1 | 0.6 | -1.7 | -16 | 0.0%
Cc1ccc(NC(=O)c2ccc(OC(=O)C(C)Oc3ccc(Cl)cc3C)cc2)cc1 (configuration not stated) | 7 | 3 | -0.1 | -0.5 | -14 | -0.7%
CC(C)OC(=O)c1ccc(N2C(=O)C3CC=CCC3C2=O)cc1 (configuration not stated) | 0 | -2 | -0.4 | -6.3 | 10 | 2.2%
CCN1C[C@@H]2[C@@H]3C(=O)N(C)C(=O)[C@@H]3[C@](Cc3ccccc3)(C1=O)N2C(=O)c1ccccc1 | -5 | -5 | 0.0 | 0.4 | -5 | 3.8%
O=C(COC(=O)c1ccc(S(=O)(=O)NCc2ccco2)cc1)NC1CCCCC1 | 0 | -1 | 0.6 | -1.3 | -2 | -1.2%
CC(=O)Nc1ccc(CC#N)cc1 | -4 | 23 | 1.8 | -5.6 | 1 | 0.9%
Cc1nc(N2CCN(C(=O)c3ccco3)CC2)nc2c1C(=O)CCC2 | 7 | -5 | 0.5 | -6.0 | -2 | -1.3%
S=C(Nc1ccccc1)N1CCCN1c1ccccc1 | 0 | 6 | -0.7 | -5.3 | -16 | 1.2%
Cc1ccc(Nc2nnc(SCC(=O)NCc3ccco3)s2)cc1 | -8 | -1 | 0.7 | 2.7 | -1 | -0.1%
COCCCNC(=O)Cn1nnc(-c2ccccc2NC(=O)c2ccc(F)cc2)n1 | 3 | -23 | -0.6 | -1.8 | -13 | 4.0%[38.3 µM]
O=C(/C=C/c1ccccc1)Nc1ccc(CN2CCOCC2)cc1 | 1 | -17 | -0.5 | -1.9 | -1 | -0.6%
Cc1nn2c(N3CCOCC3)cc(C(C)(C)C)nc2c1-c1ccccc1 | 10 | 29 | 0.4 | -11 | -7 | 0.8%
COc1ccc(NC(=O)CCC(=O)N/N=C/c2cccnc2)cc1 | 13 | -14 | -0.1 | 7.4 | -5 | -0.3%
O=C(N/N=C/c1ccc2ccccc2c1)c1ccc(COc2ccc3c(c2)CCC3)o1 | 11 | 8 | 1.1 | 0.0 | -6 | 17%
Cc1nn(-c2ncccn2)c2c1C(=O)CC(C)(C)C2Br (configuration not stated) | -10 | 19 | -0.5 | 6.9 | x | 0.9%
CC(C)N=C(Nc1cccnc1)c1ccccc1 | 6 | -2 | 0.8 | -1.4 | 1 | 0.4%
c1coc(CNCC2OCCc3ccccc32)c1 (configuration not stated) | -2 | 14 | -0.5 | -4.4 | -14 | -2.4%[38.3 µM]
CC12CC3CC(C)(C1)CC(C(=O)NC(=S)N1CCCCC1)(C3)C2 | -13 | 18 | -0.3 | -1.3 | -12 | -0.9%[38.3 µM]
COc1ccc(CNC(=O)/C=C/C(=O)O)cc1OC | 2 | 14 | 0.4 | 2.1 | 8 | 1.4%
COc1cc(OC)cc(C(=O)NNC(=O)C(CCC(N)=O)NS(=O)(=O)c2ccc(Cl)cc2)c1 (configuration not stated) | 1 | -4 | 0.1 | 0.9 | -3 | -0.6%
CN(Cc1cnn(Cc2ccccc2)c1)C(=O)CN=C1NS(=O)(=O)c2ccccc21 | 7 | 0 | -1.1 | -1.3 | -12 | 2.6%
CCCCCn1c(=O)[nH]c2cc(C(=O)Nc3cc(C)cc(C)c3)ccc2c1=O | x | -8 | -0.6 | x | x | -0.6%
CCOC(=O)c1c(NC(=O)c2ccc(OC)cc2)sc2c1CCCCC2 | x | 10 | -0.6 | x | x | 1.1%
(further entries)
SMILES | Six1-Eya2 inh | TRPML1 blocker | TRPML1 agonist | D2 agonist | D2 PAM | PINK1 expr mod
Cc1ccc(S(=O)(=O)c2nc(-c3cccs3)oc2SC(C)c2ccccc2)cc1 (configuration not stated) | x | -12 | -0.2 | x | x | -0.5%
CC1(C)CC2(CCO1)C(Nc1ccccc1)=NC(=S)N2c1ccccc1 (configuration not stated) | 14 | 34 | 0.4 | -2.9 | -15 | 3.9%
Cc1ccc([N+](=O)[O-])cc1S(=O)(=O)N1CCNCC1 | -4 | -14 | 0.4 | -1.7 | -1 | -0.5%
Cc1csc2c(C#N)c(=O)c3c(n12)CCC3 | u | 25 | -0.5 | -1.4 | -10 | -4.0%[38.3 µM]
O=C(Cn1cnc2c(nnn2Cc2ccc(F)cc2)c1=O)N1CCN(c2ccccc2)CC1 | -5 | -3 | -0.3 | -3.8 | -16 | 2.0%
O=C(Cn1ccc2ccccc2c1=O)NCCC(=O)N1CCN(c2cccc(Cl)c2)CC1 | 1 | 15 | 0.3 | -4.6 | -11 | -1.5%
Nc1ccccc1Nc1nc2ccccc2[nH]1 | -4 | -11 | 1.1 | -1.5 | -14 | 10%
CCc1ccc(OCC(=O)NNC(=S)NC(=O)C2CC2)c(Br)c1 | -10 | 19 | 3.1 | -4.0 | -18 | 2.0%
COc1ccc2c(c1[N+](=O)[O-])CCC/C2=N/OC(=O)c1cccc2ccccc12 | -5 | 7 | 0.1 | 0.1 | 1 | 4.0%
CCOC(=O)c1sc2cc([N+](=O)[O-])cc(SCC(=O)OC)c2c1N | u | 0 | 1.2 | -1.9 | 0 | -2.1%[38.3 µM]
CCN(CC(=O)Nc1ccc(OC)cc1)C(=O)c1ccc(N2CCCC2=O)cc1 | 1 | 8 | -0.6 | -3.5 | 2 | 2.8%
Cc1cccc(C)c1NC(=O)c1cc(S(=O)(=O)N2CCC3(CC2)OCCO3)ccc1F | -3 | 7 | -0.8 | -0.7 | -15 | 0.5%
COc1ccc(-n2nc(C)c3sc(C)nc3c2=O)cc1 | 2 | -7 | 0.6 | -4.3 | -3 | 0.1%
CCCC(=O)N(CCN1CCOCC1)c1nc2ccc(OCC)cc2s1 | -1 | -10 | -0.3 | -1.4 | -4 | 1.5%
Cc1ccc(S(=O)(=O)N(C)C)cc1NC(=O)/C=C/c1cccs1 | -2 | -11 | -0.1 | -3.1 | -33 | 2.6%
CCc1cccc(C)c1NC(=O)C1CCN(c2nnc(C)c3c(C)n(-c4ccccc4)nc23)CC1 | x | 7 | 1.9 | x | x | 3.0%
CCOC(=O)c1c2n(c3ccc(O)cc13)CCCCC2 | -16 | -6 | 1.8 | 0.8 | -10 | -1.3%
Cc1cccn2cc(COc3cccc([N+](=O)[O-])c3)nc12 | 5 | -1 | -0.7 | 2.0 | -6 | 2.3%

Some of the entries so far, in CSV form:
SMILES,Six1-Eya2 inh,TRPML1 blocker,TRPML1 agonist,D2 agonist,D2 PAM,PINK1 expr mod
COc1cc(S(=O)(=O)N2CCN(c3ccc(F)cc3)CC2)ccc1Cl,-5,8,0.2,-1.5,3,2.7%
c1coc(CNCC2OCCc3ccccc32)c1 (configuration not stated),-2,14,-0.5,-4.4,-14,-2.4%[38.3 µM]
